Screens deposited in PubChem BioAssay by Broad Institute.
A1 apoptosis 2 – A1 inhibitors via caspase activation, primary screen, cell-based, luminescence, HTS, two replicates; caspase activation, % (concentration not given with the values); MEF A1-2A-BIM cells, caspase-Glo luminescence, 3 h; percent of clofoctol response, DMSO zero; 24,000 tested, under 10 active; AID 2465, 2010; in the data active = caspase activation above about 5.9%;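 also: wells of about 30 µL received 50 nL stock; the first replicate is given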
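Material: A1-2A-BIM-expressing MEF cells. Buffer or medium: RPMI-1640 plus 10% FBS. Incubation: cells settled overnight, compound exposure 3 h at 37 °C, 5% CO2. Signal: Caspase-Glo 3/7 luminescence, 1 h at room temperature.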
* hit, by the source's call. An excerpt; rates above refer to the full screens.

SMILES | A1 apoptosis 2
C[C@H]1CN([C@@H](C)CO)C(=O)Cc2cc(NC(=O)CCN3CCOCC3)ccc2O[C@H]1CN(C)S(=O)(=O)c1cn(C)cn1 | 0.1
Cc1cc(C(=O)Nc2cccc3c2O[C@@H](CN(C)CC2CC2)[C@@H](C)CN([C@H](C)CO)C3=O)n(C)n1 | -0.5
C[C@H]1CN([C@@H](C)CO)C(=O)c2cc(NC(=O)Cc3ccccc3)ccc2O[C@H]1CN(C)C(=O)Nc1ccc(C(F)(F)F)cc1 | 0.8
C[C@@H]1CN([C@@H](C)CO)C(=O)c2cccc(NC(=O)NC3CCCCC3)c2O[C@H]1CN(C)Cc1ccc2c(c1)OCO2 | -2.5
C[C@@H]1CN([C@H](C)CO)C(=O)Cc2cc(NC(=O)Nc3cccc4ccccc34)ccc2O[C@@H]1CN(C)C(=O)Nc1cccc2ccccc12 | -1.7
C[C@@H]1CCCCO[C@@H](CN(C)C)[C@H](C)CN([C@H](C)CO)C(=O)c2cc(NC(=O)NC3CCCCC3)ccc2O1 | 0.3
C[C@H]1CN([C@@H](C)CO)C(=O)c2cc(NC(=O)C3CC3)ccc2O[C@H]1CN(C)C(=O)Nc1ccccc1 | 0.3
C[C@H](CO)N1C[C@H](C)[C@@H](CN(C)C(=O)Nc2ccccc2)Oc2ccc(NS(=O)(=O)c3ccc(F)cc3)cc2C1=O | 0.0
C[C@H](CO)N1C[C@H](C)[C@H](CN(C)C(=O)Nc2ccc(C(F)(F)F)cc2)Oc2c(NS(=O)(=O)c3cccs3)cccc2C1=O | -0.3
CC(C)NC(=O)N(C)C[C@@H]1Oc2ccc(NC(=O)Nc3ccc(F)cc3)cc2C(=O)N([C@@H](C)CO)C[C@H]1C | 0.2
O=C(C1=C[C@H](c2ccc(Br)cc2)C[C@H](OCc2ccc(CO)cc2)O1)N1CCN(Cc2ccccc2)CC1 | -1.1
COc1ccc(S(=O)(=O)Nc2cccc3c2O[C@H](CN(C)CC2CCCCC2)[C@@H](C)CN([C@H](C)CO)C3=O)cc1 | 0.2
C[C@H](CO)N1C[C@H](C)[C@@H](CN(C)Cc2ccc(C(=O)Nc3ccccc3N)cc2)Oc2c(NS(C)(=O)=O)cccc2C1=O | -1.1
CC(C)NC(=O)N(C)C[C@H]1Oc2c(NC(=O)C3CCOCC3)cccc2C(=O)N([C@@H](C)CO)C[C@H]1C | -0.1
Cc1noc(C)c1NC(=O)Nc1cccc2c1O[C@H](CN(C)Cc1ccc(-c3ccccc3)cc1)[C@H](C)CN([C@H](C)CO)C2=O | 0.6
C[C@H](CO)N1C[C@H](C)[C@@H](CN(C)S(=O)(=O)c2ccc(F)cc2)Oc2ccc(NS(=O)(=O)c3ccccc3)cc2CC1=O | -0.5
C[C@@H]1CN([C@H](C)CO)C(=O)c2cc(NC(=O)CCCCCC(=O)Nc3ccccc3N)ccc2O[C@H]1CN(C)C(=O)Nc1ccccc1 | 0.2
Cc1ccc(S(=O)(=O)Nc2ccc3c(c2)C(=O)N([C@H](C)CO)C[C@@H](C)[C@H](CN(C)C(=O)Nc2ccc(F)cc2)OCCCC[C@@H](C)O3)cc1 | -0.6
Cc1noc(C)c1NC(=O)Nc1ccc2c(c1)C(=O)N([C@H](C)CO)C[C@H](C)[C@H](CN(C)S(=O)(=O)c1ccc(F)cc1)O2 | -2.1
C[C@@H]1CCCCO[C@@H](CN(C)S(=O)(=O)c2ccc(F)cc2)[C@@H](C)CN([C@@H](C)CO)C(=O)c2cc(NC(=O)C3CCCCC3)ccc2O1 | 0.5
CNC[C@@H]1OCCCC[C@@H](C)Oc2ccc(NS(=O)(=O)c3ccc(OC)cc3)cc2C(=O)N([C@H](C)CO)C[C@H]1C | -0.8
C[C@@H]1CCCCO[C@H](CN(C)C)[C@@H](C)CN([C@H](C)CO)C(=O)c2cc(NC(=O)Nc3ccc(F)cc3)ccc2O1 | -0.2
Cc1noc(C)c1NC(=O)N(C)C[C@H]1OCCCC[C@H](C)Oc2ccc(NC(=O)c3ccncc3)cc2C(=O)N([C@H](C)CO)C[C@@H]1C | 0.7
COc1ccc(S(=O)(=O)Nc2ccc3c(c2)CC(=O)N([C@H](C)CO)C[C@@H](C)[C@@H](CN(C)S(=O)(=O)c2ccccc2)O3)cc1 | 0.6
C[C@H]1CN([C@@H](C)CO)C(=O)c2cc(NC(=O)Nc3cccc4ccccc34)ccc2O[C@H]1CN(C)C(=O)NC1CCCCC1 | 2.6
More compounds
SMILES | A1 apoptosis 2
C[C@H]1CN([C@@H](C)CO)C(=O)CCCn2cc(nn2)CO[C@@H]1CN(C)C(=O)C1CCCCC1 | 0.4
C[C@@H]1CCCCO[C@@H](CN(C)Cc2ccc(Cl)c(Cl)c2)[C@H](C)CN([C@@H](C)CO)C(=O)c2cc(NC(=O)Nc3ccc(F)cc3)ccc2O1 | 0.0
C[C@H]1CN([C@@H](C)CO)C(=O)CCCn2cc(nn2)CO[C@H]1CN(C)C(=O)c1ccccc1 | -1.6
Cc1noc(C)c1NC(=O)N(C)C[C@H]1Oc2ccc(NC(=O)C3CC3)cc2CC(=O)N([C@H](C)CO)C[C@H]1C | 0.3
C[C@@H]1CN([C@@H](C)CO)C(=O)c2cc(NC(=O)Cn3cnnn3)ccc2O[C@H]1CN(C)C(=O)Nc1ccccc1 | 1.2
COc1ccc(S(=O)(=O)N(C)C[C@H]2OCCCC[C@H](C)Oc3ccc(NC(=O)NC4CCCCC4)cc3C(=O)N([C@H](C)CO)C[C@H]2C)cc1 | -0.4
CC(C)NC(=O)N(C)C[C@@H]1OCc2cnnn2CCCC(=O)N([C@@H](C)CO)C[C@@H]1C | 0.1
C[C@@H]1CN([C@H](C)CO)C(=O)c2cc(NC(=O)Nc3ccccc3)ccc2O[C@@H]1CN(C)S(C)(=O)=O | -0.6
C[C@H](CO)N1C[C@H](C)[C@@H](CN(C)S(=O)(=O)c2cn(C)cn2)OCCCC[C@H](C)Oc2ccc(NC(=O)Nc3ccc(F)cc3)cc2C1=O | 0.6
C[C@@H]1CN([C@@H](C)CO)C(=O)c2cc(NC(=O)CCC(F)(F)F)ccc2O[C@@H](C)CCCCO[C@@H]1CN(C)C(=O)CCC(F)(F)F | 0.5
C[C@@H]1CCCCO[C@H](CN(C)C(=O)Nc2cccc3ccccc23)[C@@H](C)CN([C@H](C)CO)C(=O)c2cc(NS(=O)(=O)c3cn(C)cn3)ccc2O1 | 0.7
C[C@@H]1CN([C@@H](C)CO)C(=O)c2cccc(NC(=O)c3cnccn3)c2O[C@@H]1CN(C)C | -0.1
CC(C)NC(=O)N(C)C[C@H]1Oc2c(NC(=O)CCCCCC(=O)Nc3ccccc3N)cccc2C(=O)N([C@H](C)CO)C[C@@H]1C | 1.5
C[C@H]1CN([C@@H](C)CO)C(=O)CCCn2cc(nn2)CO[C@@H]1CN(C)S(=O)(=O)c1ccc2c(c1)OCCCO2 | 0.9
[N-]=[N+]=NCc1ccccc1C[C@@]1(C(=O)N2CCOCC2)N=C(c2ccc(OCCCO)cc2)O[C@@H]1c1ccccc1 | 0.8
COc1ccc(OC(=O)N(C)C[C@H]2OCc3cn(nn3)CCCC(=O)N([C@@H](C)CO)C[C@H]2C)cc1 | 0.1
C[C@H]1CN([C@@H](C)CO)C(=O)c2cc(NC(=O)Nc3ccc(C(F)(F)F)cc3)ccc2O[C@@H]1CN(C)C(=O)Nc1ccc(F)cc1 | 0.0
C[C@@H]1CCCCO[C@H](CN(C)C)[C@H](C)CN([C@@H](C)CO)C(=O)c2cc(NC(=O)Nc3ccccc3)ccc2O1 | 1.4
O=C(O)CCCCCCC(=O)N/N=C/c1ccc(S(=O)(=O)O)o1 | 1.1
C[C@@H]1CN([C@H](C)CO)C(=O)Cc2cc(NC(=O)c3ccncc3)ccc2O[C@H]1CN(C)S(=O)(=O)c1ccc(Cl)cc1 | 0.6
O=C(N/N=C/c1cc2c(cc1Br)OCO2)c1ccccn1 | -12
COc1ccc(NC(=O)N(C)C[C@@H]2OCCCC[C@H](C)Oc3ccc(NC(=O)c4ccncc4)cc3C(=O)N([C@H](C)CO)C[C@@H]2C)cc1 | -0.2
COc1ccc(S(=O)(=O)Nc2cccc3c2O[C@@H](CN(C)C(=O)Nc2ccc4c(c2)OCO4)[C@H](C)CN([C@H](C)CO)C3=O)cc1 | -0.4
Cc1noc(C)c1S(=O)(=O)Nc1ccc2c(c1)C(=O)N([C@H](C)CO)C[C@@H](C)[C@@H](CN(C)S(=O)(=O)c1ccccc1)OCCCC[C@H](C)O2 | 0.4
CC(C)NC(=O)N(C)C[C@@H]1Oc2ccc(NC(=O)C3CC3)cc2CC(=O)N([C@H](C)CO)C[C@H]1C | -0.9

Taken from the entries so far (nine entries):
SMILES | A1 apoptosis 2
C[C@@H]1CCCCO[C@@H](CN(C)Cc2ccc(Cl)c(Cl)c2)[C@H](C)CN([C@@H](C)CO)C(=O)c2cc(NC(=O)Nc3ccc(F)cc3)ccc2O1 | 0.0
C[C@H]1CN([C@@H](C)CO)C(=O)CCCn2cc(nn2)CO[C@H]1CN(C)C(=O)c1ccccc1 | -1.6
Cc1noc(C)c1NC(=O)N(C)C[C@H]1Oc2ccc(NC(=O)C3CC3)cc2CC(=O)N([C@H](C)CO)C[C@H]1C | 0.3
C[C@@H]1CN([C@@H](C)CO)C(=O)c2cc(NC(=O)Cn3cnnn3)ccc2O[C@H]1CN(C)C(=O)Nc1ccccc1 | 1.2
COc1ccc(S(=O)(=O)N(C)C[C@H]2OCCCC[C@H](C)Oc3ccc(NC(=O)NC4CCCCC4)cc3C(=O)N([C@H](C)CO)C[C@H]2C)cc1 | -0.4
CC(C)NC(=O)N(C)C[C@@H]1OCc2cnnn2CCCC(=O)N([C@@H](C)CO)C[C@@H]1C | 0.1
C[C@@H]1CN([C@H](C)CO)C(=O)c2cc(NC(=O)Nc3ccccc3)ccc2O[C@@H]1CN(C)S(C)(=O)=O | -0.6
C[C@H](CO)N1C[C@H](C)[C@@H](CN(C)S(=O)(=O)c2cn(C)cn2)OCCCC[C@H](C)Oc2ccc(NC(=O)Nc3ccc(F)cc3)cc2C1=O | 0.6
C[C@@H]1CN([C@@H](C)CO)C(=O)c2cc(NC(=O)CCC(F)(F)F)ccc2O[C@@H](C)CCCCO[C@@H]1CN(C)C(=O)CCC(F)(F)F | 0.5

More records.
SMILES | A1 apoptosis 2
C[C@@H]1CCCCO[C@H](CN(C)C(=O)C2CCCCC2)[C@H](C)CN([C@@H](C)CO)C(=O)c2cc(NC(=O)C3CCCCC3)ccc2O1 | -1.8
Cc1cc(C(=O)Nc2cccc3c2O[C@H](CN(C)Cc2ccc4c(c2)OCO4)[C@H](C)CN([C@@H](C)CO)C3=O)n(C)n1 | 0.1
Cc1noc(C)c1NC(=O)Nc1ccc2c(c1)CC(=O)N([C@@H](C)CO)C[C@@H](C)[C@H](CN(C)C)O2 | 2.4
C=CC[C@@H](OC(=O)Nc1ccc(SC)cc1)c1ccc(OCCO)cc1 | -0.1
O=C(NC1CC1)[C@@H]1c2ccccc2C(=O)N(CC23CC4CC(CC(C4)C2)C3)[C@H]1c1ccc(CO)cc1 | 0.5
CN1CCN(C(=O)C2=C[C@H](c3ccccc3)C[C@H](OCCCCO)O2)CC1 | -0.1
C[C@@H]1CN([C@H](C)CO)C(=O)c2cccc(NS(=O)(=O)c3ccc(F)cc3)c2O[C@@H]1CN(C)Cc1ccncc1 | 0.5
C[C@@H]1CN([C@H](C)CO)C(=O)c2cc(NS(C)(=O)=O)ccc2O[C@@H](C)CCCCO[C@@H]1CN(C)Cc1ccccc1 | -1.3
O=C(NCc1nc2ccccc2[nH]1)C1=C[C@@H](C2CC2)C[C@@H](OCc2ccc(CO)cc2)O1 | 1.1
Cc1ccc(S(=O)(=O)N(C)C[C@H]2OCCCC[C@@H](C)Oc3ccc(NC(=O)Nc4c(C)noc4C)cc3C(=O)N([C@@H](C)CO)C[C@H]2C)cc1 | 0.5
COc1ccc(S(=O)(=O)Nc2ccc3c(c2)C(=O)N([C@@H](C)CO)C[C@H](C)[C@H](CN(C)S(=O)(=O)c2cccs2)O3)cc1 | 1.5
C[C@H]1CN([C@@H](C)CO)C(=O)c2cc(NC(=O)c3ccncc3)ccc2O[C@@H]1CN(C)Cc1ccc(-c2ccccc2)cc1 | -0.3
C[C@@H]1CCCCO[C@@H](CN(C)C(=O)C2CCCCC2)[C@@H](C)CN([C@@H](C)CO)C(=O)c2cc(NC(=O)C3CCCCC3)ccc2O1 | -0.4
O=C(N/N=C/c1ccc(Oc2ccccc2)cc1)c1ccccc1O | -6.1
C[C@H]1CN([C@@H](C)CO)C(=O)Cc2cc(NC(=O)CCCCCC(=O)Nc3ccccc3N)ccc2O[C@H]1CN(C)C(=O)NC1CCCCC1 | 2.0
C[C@@H]1CCCCO[C@H](CN(C)S(=O)(=O)c2ccc(Cl)cc2)[C@H](C)CN([C@H](C)CO)C(=O)c2cc(N(C)C)ccc2O1 | -0.4
C[C@@H]1CN([C@@H](C)CO)C(=O)c2cccc(NS(=O)(=O)c3ccccc3)c2O[C@@H]1CN(C)C(=O)Nc1cccc2ccccc12 | 0.8
COc1ccc(S(=O)(=O)N2CCN(Cc3ccc(OCCO)cc3)CC2)cc1 | -0.4
C[C@H](CO)N1C[C@H](C)[C@H](CN(C)S(=O)(=O)c2cccs2)Oc2ccc(NC(=O)Nc3cccc4ccccc34)cc2C1=O | 0.0
COc1ccc(CN(C)C[C@H]2Oc3ccc(NC(=O)Nc4ccc(F)cc4)cc3C(=O)N([C@H](C)CO)C[C@H]2C)cc1 | -0.3
C[C@H](CO)N1C[C@H](C)[C@H](CN(C)C(=O)NC2CCCCC2)Oc2c(NC(=O)c3ccc(-c4nccs4)cc3)cccc2C1=O | -2.0
C[C@@H]1CN([C@@H](C)CO)C(=O)c2cc(NC(=O)CCCN(C)C)ccc2O[C@H]1CN(C)C(=O)Nc1ccc2c(c1)OCO2 | -0.6
C[C@H]1CN([C@@H](C)CO)C(=O)CCCn2cc(nn2)CO[C@H]1CN(C)Cc1ccc(Oc2ccccc2)cc1 | -1.0
